Shh pathway inh = Sonic Hedgehog pathway inhibition; Shh-LIGHT2 Gli-luciferase reporter, 30 h; inhibition, % (concentration not given with the values); 22,000 tested, 2.1% active; AID 2313;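 active = replicate mean of 65% or more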;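 note: pathway switched on by Shh-conditioned medium diluted 1 in 25 in low serum; 100 nL library stock added to about 40 µL; 0% = median of neutral wells and 100% = positive control level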
MITF inh = MITF inhibition. 37,000 tested, 0.28% active. inhibition, % (no concentration beside the values). TRPM1 promoter luciferase, luminescence, 24 h;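 active = most replicates at 85% or more, or half of them and the mean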;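 note: human melanocyte line stably carrying TRPM1 promoter luciferase reporter; 0% = vehicle wells and 100% = a positive control; the first replicate is given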
PD-1 reverse act = activators reversing PD-1 mediated T-cell inhibition | primary human CD4 T cells, PD-L1 beads, CellTiter-Glo 96 h | activation, % (no concentration beside the values) | 29,000 tested, under 10 active | AID 2316;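 active = replicate mean of 50% or more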;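 note: 0% = median vehicle wells and 100% = positive control; 100 nL library stock added to about 50 µL; numbers are from one replicate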
YB-1 expr inh = YB-1 expression inhibition. U2OS, qRT-PCR YB-1 vs CDIP delta delta Cp, 16 h; active compounds read high; zero = DMSO, each unit about twofold. delta delta Cp (YB-1 minus CDIP) (test concentration not listed). 30,000 tested, 0.37% active. AID 434959;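 active = delta delta Cp rounded down to an integer at or above 3, about 3 SD of DMSO wells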;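 note: higher means less YB-1 transcript or more CDIP transcript relative to DMSO; stock transfer was 100 nL into about 100 µL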
* hit, by the source's call; · = not tested or not shown. The list is partial; rates above refer to the full screens.

SMILES | Shh pathway inh | MITF inh | YB-1 expr inh | PD-1 reverse act
COc1ccc(S(=O)(=O)Nc2cccc3c2O[C@H](CN(C)C(=O)Nc2ccc(C(F)(F)F)cc2)[C@H](C)CN([C@@H](C)CO)C3=O)cc1 | -3 | 8 | -0.15 | 0.3
C[C@@H]1CN([C@@H](C)CO)C(=O)c2cccc(NC(=O)Nc3ccc(F)cc3)c2O[C@@H]1CN(C)Cc1ccc(C(F)(F)F)cc1 | 35 | 5 | -0.19 | -2.5
Cc1noc(C)c1NC(=O)N(C)C[C@H]1Oc2ccc(NS(=O)(=O)c3cccs3)cc2C(=O)N([C@@H](C)CO)C[C@H]1C | · | -8 | 0.17 | 1.5
Cc1ccc(N(CC(=O)Nc2ccc(I)cc2C)S(C)(=O)=O)cc1C | · | 14 | · | 0.2
Cc1sc2nc(SCC(=O)Nc3ccccc3C(F)(F)F)nc(N)c2c1C | · | 37 | · | -2.2
C[C@@H]1CN([C@H](C)CO)C(=O)c2cccc(NC(=O)C3CCCCC3)c2O[C@H]1CN(C)S(=O)(=O)c1ccc(F)cc1 | 6 | 0 | -0.17 | ·
C[C@H](CO)N1C[C@H](C)[C@@H](CN(C)C(=O)Nc2ccc(F)cc2)Oc2ccc(NC(=O)Nc3ccc4c(c3)OCO4)cc2C1=O | -53 | -4 | 0.24 | ·
COc1ccc(NC(=O)N(C)C[C@@H]2Oc3ccc(NC(=O)Nc4ccc5c(c4)OCO5)cc3CC(=O)N([C@@H](C)CO)C[C@@H]2C)cc1 | -15 | -6 | -0.025 | -1.7
Nc1nnc(SCC(=O)Nc2ccc(Cl)cc2O)s1 | · | 0 | · | 0.6
CC(=O)c1cccc(NC(=O)CN(c2cccc(F)c2)S(C)(=O)=O)c1 | · | -10 | · | -0.2
CC(C)NC(=O)Nc1ccc2c(c1)C(=O)N([C@H](C)CO)C[C@@H](C)[C@@H](CN(C)Cc1ccc(C(=O)O)cc1)O2 | -25 | -3 | 0.25 | 0.4
Cc1noc(C)c1NC(=O)Nc1cccc2c1O[C@H](CN(C)S(=O)(=O)c1ccccc1)[C@H](C)CN([C@H](C)CO)C2=O | -26 | -9 | -0.15 | 1.0
CNC[C@H]1Oc2ccc(NS(=O)(=O)c3ccc(F)cc3)cc2CC(=O)N([C@H](C)CO)C[C@H]1C | -2 | -5 | 0.063 | 1.7
C[C@H]1CN([C@@H](C)CO)C(=O)Cc2cc(NS(=O)(=O)c3ccccc3)ccc2O[C@@H]1CN(C)Cc1ccc(C(F)(F)F)cc1 | 44 | 6 | 0.18 | -0.6
C[C@H]1CN([C@@H](C)CO)C(=O)Cc2cc(NS(=O)(=O)c3ccc(F)cc3)ccc2O[C@H]1CN(C)S(=O)(=O)c1ccccc1 | -8 | -9 | -0.51 | 0.6
C[C@H](CO)N1C[C@H](C)[C@H](CN(C)S(=O)(=O)c2ccccc2)Oc2c(NS(=O)(=O)c3ccccc3)cccc2C1=O | 6 | -5 | -0.072 | 2.2
Nc1ncnc2c1ncn2C1OC(CO)[C@H](O)[C@@H]1S (stereo not given in full) | -8 | -1 | 0.24 | 0.0
C[C@@H]1CN([C@H](C)CO)C(=O)c2cccc(NC(=O)Nc3ccccc3)c2O[C@@H]1CN(C)C(=O)Nc1ccc2c(c1)OCO2 | -20 | -3 | 0.2 | 2.3
O=C(Nc1nc(-c2ccccc2)cs1)c1ccc(S(=O)(=O)N2CCCCC2)cc1 | 43 | 51 | -0.19 | 1.2
C[C@@H]1CN([C@@H](C)CO)C(=O)Cc2cc(NC(=O)NC3CCCCC3)ccc2O[C@@H]1CN(C)Cc1ccc(Oc2ccccc2)cc1 | 56 | 49 | -0.38 | -3.4
C[C@H]1CN([C@@H](C)CO)C(=O)c2cc(NC(=O)CCC(F)(F)F)ccc2O[C@H]1CN(C)CC1CC1 | -20 | -3 | -0.12 | 0.5
CCn1c(SCC(=O)Nc2ccccc2N2CCOCC2)nnc1-c1ccccc1 | · | 20 | · | 0.7
FC(F)(F)c1ccc(-c2nnc(-c3ccccn3)c(-c3ccccn3)n2)nc1 | · | 0 | -0.2 | 1.0
C[C@@H]1CN([C@H](C)CO)C(=O)Cc2cc(NS(=O)(=O)c3cccs3)ccc2O[C@@H]1CN(C)CC1CCCCC1 | · | -10 | -0.15 | 0.9
C[C@H]1CN([C@@H](C)CO)C(=O)c2cc(NS(=O)(=O)c3cn(C)cn3)ccc2O[C@H]1CN(C)S(=O)(=O)c1ccc(F)cc1 | · | -5 | 0.31 | 1.6
C[C@H](CO)N1C[C@H](C)[C@@H](CN(C)Cc2ccncc2)Oc2ccc(NC(=O)Nc3ccc(C(F)(F)F)cc3)cc2C1=O | -5 | -42 | -0.31 | ·
Cc1ccc(S(=O)(=O)c2ccc(Cl)cc2)cc1S(=O)(=O)N1CCCC1 | 2 | 35 | -0.72 | -1.0
O=C(Oc1ccc2ccccc2c1)C1c2ccccc2Oc2ccccc21 | -2 | 0 | 0.094 | 0.9
C[C@H](CO)N1C[C@H](C)[C@H](CN(C)Cc2ccc(-c3ccccc3)cc2)Oc2ccc(NC(=O)CCCCCC(=O)Nc3ccccc3N)cc2C1=O | · | 6 | 0.41 | 0.3
COC(=O)c1ccccc1NC(=O)c1ccc(NS(=O)(=O)c2cccc3cccnc23)cc1 | · | -12 | · | 1.8
O=C(CC1NCCNC1=O)Nc1ccc2c(c1)OCCO2 (stereo not given) | · | -13 | · | 2.6
C[C@H](CO)N1C[C@H](C)[C@H](CN(C)C(=O)Nc2cccc3ccccc23)Oc2c(NS(C)(=O)=O)cccc2C1=O | 20 | -2 | -0.46 | ·
C[C@H](CO)N1C[C@H](C)[C@H](CN(C)C)Oc2ccc(NS(=O)(=O)c3cn(C)cn3)cc2C1=O | · | -13 | -0.21 | 4.5
Cc1ccc(S(=O)(=O)N2C(=O)CCC2C(=O)Nc2cccc3c2CCCC3)cc1 (stereo not given) | · | -15 | · | 2.6
O=C(NCc1ccco1)c1ccc(Cl)c(S(=O)(=O)N2CCOCC2)c1 | · | -10 | · | 0.5
C[C@H](CO)N1C[C@H](C)[C@H](CN(C)C(=O)Nc2ccccc2)Oc2ccc(NC(=O)Nc3ccc(F)cc3)cc2CC1=O | -3 | -13 | -0.17 | -0.5
Clc1ccccc1CSc1nnc(Cn2cnc3ccccc32)n1-c1ccccc1 | · | 5 | · | 0.2
O=C(Oc1ccc(C=Nc2ccc(F)cc2)cc1)c1cccs1 | -4 | -21 | 0.048 | -0.7
NC(=O)C1c2ccccc2Oc2ccccc21 | -64 | -10 | -0.39 | -0.6
Cc1noc(C)c1NC(=O)N(C)C[C@H]1Oc2ccc(NC(=O)Nc3ccc(C(F)(F)F)cc3)cc2C(=O)N([C@H](C)CO)C[C@H]1C | -20 | 0 | 0.011 | -2.2
Cc1sc2nc(C(=O)Oc3ccc(F)cc3)cc(N)c2c1C | -51 | 36 | -0.26 | 0.1
C[C@H](CO)N1C[C@H](C)[C@@H](CN(C)Cc2ccc3c(c2)OCO3)Oc2c(NC(=O)c3ccc(-c4nccs4)cc3)cccc2C1=O | 38 | 24 | -0.023 | -2.9
O=c1c(Cl)c(NCCc2ccccc2)cnn1-c1ccccc1 | 58 | -37 | -0.48 | -1.7
C[C@@H]1CN([C@@H](C)CO)C(=O)c2cc(NC(=O)Nc3ccc(F)cc3)ccc2O[C@@H]1CN(C)S(=O)(=O)c1ccc(Cl)cc1 | 16 | 65 | -0.35 | 0.4
O=C(Nc1ccccc1C(F)(F)F)C1Sc2nnc(-c3ccccc3)n2NC1c1ccc(F)cc1 (stereo not given) | 20 | 25 | 0.15 | -1.8
C[C@@H]1CN([C@H](C)CO)C(=O)c2cccc(NS(=O)(=O)c3cn(C)cn3)c2O[C@@H]1CN(C)CC1CCCCC1 | -200 | -6 | 0.5 | 1.3
C[C@@H]1CN([C@H](C)CO)C(=O)Cc2cc(NS(=O)(=O)c3cccs3)ccc2O[C@H]1CN(C)CC1CCCCC1 | -4 | -8 | -0.017 | 0.7
COc1ccc(NC(=O)Nc2cccc3c2O[C@H](CN(C)Cc2ccc(-c4ccccc4)cc2)[C@H](C)CN([C@H](C)CO)C3=O)cc1 | -38 | -7 | -0.43 | 0.9
O=C(O)CCCC(=O)Nc1ccc(O)cc1 | · | 1 | · | 0.8
COc1ccc(N2C(=O)Cc3ccc(OC)cc3C2=O)cc1 | -26 | 1 | 0.67 | 3.5

Laid out differently: two of the compounds above.
NC(=O)C1c2ccccc2Oc2ccccc21
  Shh pathway inh: -64
  MITF inh: -10
  YB-1 expr inh: -0.39
  PD-1 reverse act: -0.6
Cc1noc(C)c1NC(=O)N(C)C[C@H]1Oc2ccc(NC(=O)Nc3ccc(C(F)(F)F)cc3)cc2C(=O)N([C@H](C)CO)C[C@H]1C
  Shh pathway inh: -20
  MITF inh: 0
  YB-1 expr inh: 0.011
  PD-1 reverse act: -2.2

New compounds follow:
SMILES | Shh pathway inh | MITF inh | YB-1 expr inh | PD-1 reverse act
C[C@@H]1CN([C@H](C)CO)C(=O)c2cc(NC(=O)C3CCCCC3)ccc2O[C@@H]1CN(C)Cc1ccncc1 | · | 1 | -0.08 | 0.5
COc1cccc(C(Nc2cc(C)ccn2)c2ccc3ccc(C)nc3c2O)c1 (stereo not given) | · | 29 | · | -13
Cc1noc(C)c1NC(=O)N(C)C[C@H]1Oc2ccc(NC(=O)Nc3ccc(F)cc3)cc2CC(=O)N([C@@H](C)CO)C[C@@H]1C | -18 | 0 | 0.22 | -0.7
O=C(CN1C(=O)COc2ccc(Cl)cc21)N1CCCC1 | 15 | 6 | -0.14 | 0.8
COc1ccc(CN(CCN(C)C)c2ncccn2)cc1 | -24 | -5 | -0.18 | ·
C[C@@H]1CN([C@H](C)CO)C(=O)Cc2cc(NC(=O)CCN3CCOCC3)ccc2O[C@H]1CN(C)S(C)(=O)=O | -9 | -7 | -0.0099 | ·
C[C@@H]1CN([C@H](C)CO)C(=O)c2cccc(NC(=O)C3CCOCC3)c2O[C@H]1CN(C)Cc1ccc2c(c1)OCO2 | 23 | -10 | -0.016 | 2.0
C=C1CC/C=C(/COC(C)=O)C(=O)C[C@@H]2[C@@H]1CC2(C)C | 3 | · | 1.7 | ·
C[C@@H]1CN([C@H](C)CO)C(=O)c2cccc(NC(=O)c3cnccn3)c2O[C@H]1CN(C)Cc1ccc(C(=O)O)cc1 | 33 | -7 | -0.14 | 0.7
COc1ccc(C)cc1S(=O)(=O)N1CCC(C(=O)Nc2ccccc2Sc2ccccc2)CC1 | · | 26 | · | -1.5
C[C@H]1CN([C@@H](C)CO)C(=O)Cc2cc(NC(=O)CCCCCC(=O)Nc3ccccc3N)ccc2O[C@H]1CN(C)C(=O)Nc1ccc(F)cc1 | · | -8 | -0.14 | 0.9
C=CCn1c(=S)sc2c(Sc3nnc(-c4ccco4)o3)ncnc21 | 73* | 67 | 0.63 | -5.6
COc1cccc(NC(=O)CSc2nnc(-c3ccc(Cl)cc3)n2-c2ccc(F)cc2)c1 | · | 54 | · | -6.5
COc1ccc(S(=O)(=O)Nc2ccc3c(c2)CC(=O)N([C@@H](C)CO)C[C@H](C)[C@@H](CN(C)S(C)(=O)=O)O3)cc1 | -1 | 12 | -0.33 | 0.0
C[C@H]1CN([C@@H](C)CO)C(=O)Cc2cc(NC(=O)C3CCCCC3)ccc2O[C@@H]1CN(C)S(C)(=O)=O | -14 | -15 | -0.18 | 1.2
COc1ccc2[nH]c(=O)c(CN(C)S(=O)(=O)c3ccc(C)cc3)cc2c1 | · | 9 | · | -0.9
C[C@H]1CN([C@@H](C)CO)C(=O)Cc2cc(NC(=O)CCN3CCOCC3)ccc2O[C@H]1CN(C)Cc1ccc(C(=O)O)cc1 | 45 | -7 | -0.19 | 1.6
CNC(=O)Nc1nc2cccnc2s1 | -71 | -18 | -0.31 | -0.4
C[C@@H]1CN([C@@H](C)CO)C(=O)c2cc(NS(=O)(=O)c3ccccc3)ccc2O[C@@H]1CN(C)C(=O)NC1CCCCC1 | -6 | -12 | -0.39 | -1.9
C[C@@H]1CCCCO[C@@H](CN(C)C(=O)Nc2ccc(F)cc2)[C@@H](C)CN([C@H](C)CO)C(=O)c2cc(NS(=O)(=O)c3ccc(F)cc3)ccc2O1 | 34 | 2 | -0.16 | -0.3
Cc1noc(C)c1S(=O)(=O)N(C)C[C@@H]1Oc2c(NS(=O)(=O)c3ccccc3)cccc2C(=O)N([C@H](C)CO)C[C@@H]1C | 17 | -1 | -0.38 | 1.4
C[C@H](CO)N1C[C@H](C)[C@H](CN(C)S(C)(=O)=O)Oc2ccc(NC(=O)Cc3ccccc3)cc2CC1=O | · | -6 | -0.47 | ·
C[C@@H]1CN([C@H](C)CO)C(=O)Cc2cc(NS(=O)(=O)c3ccccc3)ccc2O[C@@H]1CN(C)S(=O)(=O)c1cccs1 | -2 | -13 | 0.22 | -1.0

Screening data deposited in PubChem BioAssay by Broad Institute.
